Vaccinia Venus = vaccinia inhibition (Venus reporter); 330,000 compounds, 0.46% hits; Potency, µM (titrated, usually from 36.5 µM), without a hit: top-dose activity change, negative = inhibition, most hits filed as inhibitors; Vaccinia virus Venus reporter expression, fluorescence; AID 720580; active means well fitted inhibition curve with a large enough effect; inconclusive means small, poorly fitted or top-dose-only effect; inactive means no such curve, though single readings can be large or run the other way; tested in A549 cells; also: nearly all actives have a fitted effect of over 30% in size; inactives centre near -10
VACV mCherry inh = vaccinia inhibition (mCherry reporter); Vaccinia virus mCherry reporter infection, fluorescence; about a quarter of the inactives have no number; AID 720579; Potency, µM (highest dose often 36.5 µM), for the others: at the top dose activity change, negative = inhibition, most hits filed as inhibitors; 310,000 compounds, 0.63% hits; active = well fitted inhibition curve with a large enough effect; inconclusive = small, poorly fitted or top-dose-only effect; inactive = no such curve, though single readings can be large or run the other way; tested in A549 cells; also: nearly all actives have a fitted effect of over 35% in size; inactives centre near -10
Numbers without * were called inactive; i = inactive; ? = inconclusive; . = no result given; & = joins results of further samples; [ ] = another dose, or the depositor's remark. % is scaled to controls: 0 for no effect and ±100 for the full control effect; potency is read from the fitted curve at half-maximal effect.

SMILES | Vaccinia Venus | VACV mCherry inh
CC(O)CNc1nc2c(c(=O)n(C)c(=O)n2C)n1Cc1cccc(Br)c1 (centres undefined) | -23% | -12%
COc1ccc(OC)c(S(=O)(=O)N2CCN(C(=O)CCc3ccccc3)CC2)c1 | -22% | -24%
CN1CCN(S(=O)(=O)c2cccc(C(=O)Oc3ccc(C(C)(C)C)cc3)c2)CC1 | -5% | i
CCCCCCC#Cc1cncc(C(=O)NNC(=O)Nc2cc(Cl)cc(Cl)c2)c1 | -26% | ?
COc1ccc(Cl)cc1NC(=O)CCCN1C(=O)C(c2ccccc2)Oc2cccnc21 (centres undefined) | -22% | -25%
c1ccc(COc2ccc(-c3cc4nc(NCc5ccc6c(c5)OCO6)ccn4n3)cc2)cc1 | -24% | ?
O=C(Nc1ccc([N+](=O)[O-])cc1)Nc1ccc(OC(F)F)c(Cl)c1 | 8.9µM* | ?
CCOC(=O)N1CCC(Nc2c(-c3ccc(C)cc3)c(=O)c2=O)CC1 | 8% | 3%
CCC(=O)N1c2ccccc2CC1C(=O)NCCc1ccccc1OC (centres undefined) | 0% | -2%
CC1CCCCN1S(=O)(=O)c1ccc(C(=O)Nc2nnc(-c3ccncc3)o2)cc1 (centres undefined) | -18% | -19%
O=C(NC(=S)NNS(=O)(=O)c1ccccc1)c1cccnc1 | -20% | -10%
O=C(O)c1ccccc1-c1ccccc1C(=O)Nc1ccc2c(c1)CCC2 | -7% | i

Retrieved one by one from the list above:
SMILES | Vaccinia Venus | VACV mCherry inh
CC(O)CNc1nc2c(c(=O)n(C)c(=O)n2C)n1Cc1cccc(Br)c1 (centres undefined) | -23% | -12%
O=C(NC(=S)NNS(=O)(=O)c1ccccc1)c1cccnc1 | -20% | -10%

Continuation.
SMILES | Vaccinia Venus | VACV mCherry inh
COCCNC(=O)C1(C)CCCN(C(=O)c2ccc(C(=O)OC)cc2)C1 (centres undefined) | 1% | 12%
CCOC(=O)N1CCN(S(=O)(=O)c2c(C)[nH]c(=O)[nH]c2=O)CC1 | -1% | -14%
CN(C)c1ccc(P(=O)(Nc2ccccc2)N2CCOCC2)c(NC(=O)c2cccs2)c1 (centres undefined) | -13% | i
Nc1nnnn1/N=C/c1ccc(N2CCCCC2)c([N+](=O)[O-])c1 | -9% | i
Cc1ccc(S(=O)(=O)N2CCCN(S(=O)(=O)c3ccc(C)cc3)CC2)cc1 | -19% | -21%
COC(=O)c1ccc(C2c3c(oc4ccc(C)cc4c3=O)C(=O)N2Cc2ccc3c(c2)OCO3)cc1 (centres undefined) | -2% | -6%
CCOc1ccc(CN2CCNC(=O)C2CC(=O)NCCc2ccccn2)cc1 (centres undefined) | -5% | i
Cc1csc2c(N(C)CCO)ncnc12 | -19% | -18%
CN(C)c1ccc(/C=C/c2c3c(nc4ccccc24)CCCC3)cc1 | -9% | i
N#C/C(=C/c1cccc(O)c1)C(=O)NCc1ccc(Cl)cc1 | -3% | -14%
CC(=O)Nc1ccc(OCc2ccc(S(=O)(=O)Cc3ccccc3)cc2)cc1 | -4% | i
CNc1cncc(-c2cc(C)c(O)c(C)c2)n1 | -26% | -17%
CC(O)CNc1nc2ccccc2n1CC(=O)N1CCN(Cc2ccccc2)CC1 (centres undefined) | 3% | -3%
CCOC(=O)N1CCC(NC(=O)C2CCCN2C(=O)OCc2ccccc2)CC1 (centres undefined) | -8% | .
CCOC(=O)c1cc(-c2ccc(/C=C3/C(=O)NC(=O)C(C#N)=C3C)o2)ccc1Cl | -1% | -9%
CC1=C(C(=O)OCC2CCCO2)C(c2ccncc2)C2=C(CCCC2=O)N1 (centres undefined) | -10% | i
CC(C)N1CC(C(=O)Nc2ccc(Cl)cc2Cl)CC1=O (centres undefined) | -9% | i
Fc1ccc(NC(=S)Nc2cc(-c3ccccc3)[nH]n2)cc1Cl | -9% | -13%
COc1ccccc1CNS(=O)(=O)c1c(C)nc2sccn2c1=O | 0%&-10% | 10%&-11%
COc1cccc(C(=O)CSc2nnc(-c3ccco3)n2CC2CCCO2)c1 (centres undefined) | 3% | -11%
N#CC1(NC(=O)COC(=O)c2cc(O)c3ccccc3c2O)CCCCC1 | 18% | -3%
COC(=O)CCC(=O)NC1CC(C)(C)Cc2c1cnn2-c1ccc(F)cc1 (centres undefined) | 1% | -14%
O=C(C1=NOC2(C1)C(=O)Nc1ccccc12)N1CCCCC1 (centres undefined) | 1% | 29%
CC1CCN(C(=S)c2cccc([N+](=O)[O-])c2)CC1 | -6% | ?
O=C(c1ccc(C(F)(F)F)cc1)C1CCCN(Cc2ccncc2)C1 (centres undefined) | -19% | -29%
COc1cccc2sc(NC(=O)c3ccc(Br)s3)nc12 | -13% | .
COc1ccc2oc(=O)c(C(=O)NCC3CCCO3)cc2c1 (centres undefined) | -17% | -4%
Cc1ccc(-c2noc(N=O)c2NO)cc1 | -5% | -13%
Cc1ccc(C(=O)c2sc(Nc3ccccc3F)c(S(=O)(=O)c3ccccc3)c2N)c(C)c1 | -9% | -23%
O=c1c(N2CCc3ccccc3C2)csc2ccc(Br)cc12 | -8% | -18%
CC(C)C1=CC(=NS(=O)(=O)c2cccc([N+](=O)[O-])c2)C=C(C(C)C)C1=O | -15% | .
CCCCNc1c(C(=O)OCC)c(=O)[nH]c2ccccc12 | -17% | .
CCCc1c(C(=O)N/N=C/c2cccnc2)nnn1-c1nonc1N | -10% | i
Cc1ccc(CNC(=O)COC(=O)[C@@H]2CC(O)CN2S(=O)(=O)c2ccc3c(c2)OCCO3)cc1 (some centres undefined) | -12% | -16%
COc1ccc2nc(NC(=O)c3cccc(-c4cc5ccccc5oc4=O)c3)sc2c1 | 13µM* | ?
Cc1c(C(=O)N(C)c2ccccc2Cl)cnn1-c1ccccc1 | -7% | -10%

Individual results from above:
VACV mCherry inh with O=C(C1=NOC2(C1)C(=O)Nc1ccccc12)N1CCCCC1 (centres undefined) is entered as 29%
Vaccinia Venus with CN(C)c1ccc(/C=C/c2c3c(nc4ccccc24)CCCC3)cc1 is entered as -9%
Vaccinia Venus with CC(C)N1CC(C(=O)Nc2ccc(Cl)cc2Cl)CC1=O (centres undefined) is entered as -9%

Next part.
SMILES | Vaccinia Venus | VACV mCherry inh
CN(C)c1ccc(C2Nc3ccccc3C(=O)N2CCN2CCNC2=O)cc1 (centres undefined) | -13% | i
COc1cc(C(=O)Nc2cc(C)ccn2)ccc1OCC(=O)N1CCOCC1 | -11% | -16%
CC12CCCC(=O)C1CCC(=Cc1ccco1)C2=O (centres undefined) | -13% | 0%
COc1cc(-c2cc(O)c(-c3ccc4ccccc4n3)c(=O)[nH]2)cc(OC)c1OC | 41%[activator] | ?
O=C(CCCCn1c(=O)c2ccccc2n(CC(=O)Nc2ccc(F)cc2)c1=O)NCc1ccco1 | -11% | .
C[C@@]12C(=O)N(CC3CC3)CC(=O)N1[C@H](C1CC1)[C@@H]1C(=O)N(c3ccccc3)C(=O)[C@@H]12 | -6% | i
COc1ccc(C(=O)NCCN2CCC(n3c(=O)[nH]c4ccccc43)CC2)cc1F | -20% | -18%
O=C(Nc1ccc2c(c1)OCO2)C1Cc2ccccc2CN1S(=O)(=O)c1cccs1 (centres undefined) | -15% | i
CCc1ccc2c(c1)c(=O)c(S(=O)(=O)c1ccccc1)cn2CC(=O)Nc1cc(C)ccc1C | -7% | 0%
O=c1cc(C(F)(F)C(F)F)oc2ccccc12 | -8% | -16%
C=C1C=C(C(F)F)n2ncc(C(=O)N3CCCCC3)c2N1 | -11% | -1%
Cc1cc(C)c(/C=N/n2c(C)cc(C)c(C#N)c2=O)c(C)c1 | -14% | -14%

Part of the list above in order of number of heavy atoms, falling.
SMILES | Vaccinia Venus | VACV mCherry inh
O=C(CCCCn1c(=O)c2ccccc2n(CC(=O)Nc2ccc(F)cc2)c1=O)NCc1ccco1 | -11% | .
CCc1ccc2c(c1)c(=O)c(S(=O)(=O)c1ccccc1)cn2CC(=O)Nc1cc(C)ccc1C | -7% | 0%
Cc1ccc(C(=O)c2sc(Nc3ccccc3F)c(S(=O)(=O)c3ccccc3)c2N)c(C)c1 | -9% | -23%
COc1ccc2nc(NC(=O)c3cccc(-c4cc5ccccc5oc4=O)c3)sc2c1 | 13µM* | ?
C[C@@]12C(=O)N(CC3CC3)CC(=O)N1[C@H](C1CC1)[C@@H]1C(=O)N(c3ccccc3)C(=O)[C@@H]12 | -6% | i
COc1cc(C(=O)Nc2cc(C)ccn2)ccc1OCC(=O)N1CCOCC1 | -11% | -16%
CC(C)C1=CC(=NS(=O)(=O)c2cccc([N+](=O)[O-])c2)C=C(C(C)C)C1=O | -15% | .
CCCc1c(C(=O)N/N=C/c2cccnc2)nnn1-c1nonc1N | -10% | i
Cc1c(C(=O)N(C)c2ccccc2Cl)cnn1-c1ccccc1 | -7% | -10%
O=c1c(N2CCc3ccccc3C2)csc2ccc(Br)cc12 | -8% | -18%
C=C1C=C(C(F)F)n2ncc(C(=O)N3CCCCC3)c2N1 | -11% | -1%
CC12CCCC(=O)C1CCC(=Cc1ccco1)C2=O (centres undefined) | -13% | 0%
O=c1cc(C(F)(F)C(F)F)oc2ccccc12 | -8% | -16%

Next section
SMILES | Vaccinia Venus | VACV mCherry inh
COc1ccccc1N1CCN(C(=O)C2CCN(C(=O)c3cccc(Cl)c3)CC2)CC1 | -8% | -4%
O=C(Cc1ccccc1)Nc1ccc(NC(=O)C2CC2)nc1 | -12% | i
Cc1nn(C)c(C)c1S(=O)(=O)N(CC(=O)NCCN1CCOCC1)c1ccc(C(C)C)cc1 | -7% | i
COc1ccc(NC(=O)c2cc(-c3ccc4c(c3)OCO4)on2)cc1OC | -11% | -11%
O=C1C=C(/C=C/c2ccccc2)C[C@@H](c2ccc3c(c2)OCO3)C1 | ? | ?
CCC(CC)C(=O)Nc1cccc(-c2nc3ncccn3c2C)c1 | -4%[7.34 µM] | -13%[7.34 µM]
O=C(COC(=O)c1cccc(S(=O)(=O)N2CCCC2)c1)Nc1ccccc1C(F)(F)F | -12% | -17%
Cc1ccc(CSCC(=O)N/N=C/c2cccc(OC3CSC3)c2)cc1 | -22% | -11%
CN1CCN(C(=O)C2CCCN(S(=O)(=O)c3ccc(Br)cc3)C2)CC1 (centres undefined) | -14% | -20%
CC(=O)C(C(C)=O)C(NC(=O)c1cccnc1)(C(F)(F)F)C(F)(F)F | -21% | -16%
CCc1nc2ccc(C(=O)N3CCN(S(=O)(=O)CC)CC3)cn2c1N(CC)C(=O)NCCc1ccccc1 | -5% | -2%
CC(c1nnc(SCC(=O)N2CC(=O)Nc3ccccc32)n1Cc1ccccc1)N(C)C (centres undefined) | -20% | .
CCOC(=O)c1cc(C)n(CC2CCC(C(=O)Nc3ccc(OC)cc3)CC2)c1C (centres undefined) | ? | -23%
COc1cccc(N2CC(C(=O)Nc3nnc(SCC(=O)c4ccccc4)s3)CC2=O)c1 (centres undefined) | -4% | -15%
O=C1CC(c2ccccc2)CC(=O)C1=CN1CCCC1 (centres undefined) | -14% | -7%
O=Cc1c(NCCN2CCCC2)c2ccccc2[nH]c1=O | 4% | -18%
CNC(=O)/C(C#N)=C\c1ccc(CNS(=O)(=O)c2ccc(Cl)cc2)o1 | -13% | -4%
S=C1NC(C23CC4CC(CC(C4)C2)C3)=CC(c2ccc3c(c2)OCO3)N1 (centres undefined) | -4% | -1%
Cc1ccccc1CN1CCc2nc(N3CCN(c4ccccn4)CC3)ncc2C1 | ? | ?
CCN(CC(=O)Nc1ccc(NC(C)=O)cc1)C(=O)/C=C/c1cn(-c2ccccc2)nc1-c1ccc(F)cc1 | -15% | -2%
COc1ccc(-c2ccc(C(=O)NC(C)C)c3occc23)c(C)c1 | -1% | 16%
CSCCC1C(C#N)=C(N)Oc2n[nH]c(-c3cccs3)c21 (centres undefined) | -5% | -1%
COc1ncnc2c1ncn2CCCNCC(C)c1ccccc1 (centres undefined) | -6% | i
Cc1cccc(NC(=O)CN(C)S(=O)(=O)c2ccc(-c3ccc(=O)[nH]n3)s2)c1C | 5%[7.34 µM] | -3%[7.34 µM]
COCCN(C(=O)CCC(=O)Nc1cc(C)on1)C(C(=O)NC1CCCC1)c1ccc(C)cc1 (centres undefined) | -22% | -14%
c1ccc(COc2ncnc3c2ncn3CCCNCC(c2ccccc2)c2ccccc2)cc1 | 14µM* | ?
CCn1nc(C)c(CN2CCC(n3nccc3NC(=O)c3ccccc3OC)CC2)c1C | -10% | 0%
CCc1cc(=O)oc2c(CN3CCN(C)CC3)c(O)ccc12 | 4% | -8%
CC(=O)Nc1ccc(NC(=O)C(C)OC(=O)/C=C/c2ccc3c(c2)OCO3)cc1 (centres undefined) | -3% | -10%
CC(C(=O)c1c[nH]c(C(N)=O)c1)c1ncc(C(F)(F)F)cc1Cl (centres undefined) | -2% | -4%
O=C(N[C@H]1C/C=C\C(c2cccc(F)c2)N(Cc2ccccc2)C(=O)C1)OCC1c2ccccc2-c2ccccc21 (some centres undefined) | -12% | i
Cc1ccccc1OCCCc1c(C)n[nH]c1C | -10% | -7%
COC(c1ccccc1)c1nnc(CCC(=O)N2CCN(C3CCCC3)CC2)o1 (centres undefined) | -13% | i
C=CCn1c(=O)c2ccccc2n2c(SCc3nc(N)nc(Nc4ccccc4C)n3)nnc12 | -6% | i
Cc1ccc(C)c(N(C)C(=O)CCS(=O)(=O)c2cccc3nonc23)c1 | -21% | -4%
O=S(=O)(Nc1cccc(F)c1)c1ccc2[nH]c3c(c2c1)CCCCC3 | -8% | -12%
COc1ccc(CCN2CC(=O)NC(=O)C2)cc1OC | -11% | i
CNC(=O)CN(C1CCCCC1)S(=O)(=O)c1ccc(OC)c(Cl)c1 | -10% | .
CCC(CC)c1nn2c(=O)cc(COc3ccc(NC(=O)c4ccc(Cl)cc4)cc3)nc2s1 | -1% | 10%
O=C(NC1CCCc2ccccc21)c1cnn2c1NC(=C1CC1)C=C2C(F)F (centres undefined) | -29% | -18%
O=[N+]([O-])c1ccc(CSc2ncnc3c2ncn3[C@@H]2O[C@H](CO)[C@@H](O)[C@H]2O)cc1 | -19% | ?
